# D2 PAM – potentiates the human D2 dopamine receptor allosterically; P14416; DiscoveRx D2 beta-arrestin cells, luminescence, 90 min; 100% = 57 uM dopamine signal; potentiation, % (no concentration beside the values); hit rate 0.23% among 360,000; AID 624464; active = potentiation of 50% or more; inconclusive = 30% to 50%; inactive = 30% or less;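 further: compound concentration not given in the record; tested on top of an EC20 dose of dopamine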
#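 D2 cells co-treated with compound plus 50 nM dopamine (EC20) for 90 min at 37 deg C to detect potentiation. Beta-arrestin recruitment was read as enzyme-fragment luminescence after 1 h at ambient temperature. Full response was set by 57 uM dopamine.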
# Six1-Eya2 blk – blocks human Six1 binding to Eya2 | Q15475+O00167 | AlphaScreen GST-Six1/His-Eya2 binding, biochemical; stronger effect = lower value; control for the full effect not named in the record | activity change, % (test concentration not listed) | hit rate 0.56% among 360,000; in the data active = activity change below about -65%; inconclusive = about -30% to -65%; inactive = above about -30%; further: on the % scale 0 is the no-effect control and ±100 the full control effect; compound concentration not given in the record
# Target sequence (O00167 whole entry, looked up): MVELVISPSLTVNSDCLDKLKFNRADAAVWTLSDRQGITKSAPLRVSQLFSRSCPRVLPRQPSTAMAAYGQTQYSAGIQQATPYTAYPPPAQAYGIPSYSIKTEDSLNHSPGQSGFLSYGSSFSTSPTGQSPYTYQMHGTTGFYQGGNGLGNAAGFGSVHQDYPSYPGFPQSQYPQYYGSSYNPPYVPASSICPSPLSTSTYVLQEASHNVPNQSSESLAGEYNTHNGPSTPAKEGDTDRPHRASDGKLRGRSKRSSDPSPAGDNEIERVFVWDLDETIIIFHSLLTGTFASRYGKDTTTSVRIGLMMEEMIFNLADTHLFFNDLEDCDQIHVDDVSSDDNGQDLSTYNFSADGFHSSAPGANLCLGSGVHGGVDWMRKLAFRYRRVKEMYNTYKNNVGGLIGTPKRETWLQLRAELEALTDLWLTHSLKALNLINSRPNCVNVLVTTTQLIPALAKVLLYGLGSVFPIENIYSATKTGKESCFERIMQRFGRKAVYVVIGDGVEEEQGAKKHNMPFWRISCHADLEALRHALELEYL
# Target sequence (Q15475 whole entry, looked up): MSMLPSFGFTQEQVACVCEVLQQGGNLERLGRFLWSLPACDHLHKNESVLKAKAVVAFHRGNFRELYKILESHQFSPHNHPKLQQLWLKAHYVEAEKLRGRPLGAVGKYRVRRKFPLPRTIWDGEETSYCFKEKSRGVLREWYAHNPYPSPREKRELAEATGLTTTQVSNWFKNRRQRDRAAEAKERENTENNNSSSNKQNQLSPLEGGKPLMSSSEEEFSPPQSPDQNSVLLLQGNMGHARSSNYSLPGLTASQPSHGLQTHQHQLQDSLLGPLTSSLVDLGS
#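 Homogeneous AlphaScreen proximity assay pairing GST-Six1 with His-tagged Eya2 (added as 5X mix: 250 nM and 500 nM) in 50 mM Tris pH 8.0, 300 mM NaCl, 1 mM TCEP. Glutathione donor and nickel acceptor beads; 1 h, 37 °C, dark.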
# PINK1 expr mod – PINK1 expression modulation. PINK1 immunofluorescence, high-content cytometry, 24 h. Potency, µM (top dose mostly 76.6 µM), for inactives: at the highest dose activation (PINK1 increase), most hits filed as activators. hit rate 0.2% among 410,000. AID 624263; active = well fitted activation curve with a large enough effect; inconclusive = small, poorly fitted or top-dose-only effect; inactive = flat fitted curve, though single readings scatter; cell line not stated here;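 further: potency means the concentration at half of the fitted maximal effect; % of control where 0% means no effect; nearly all actives have a fitted effect of over 65% in size; a mitochondrial uncoupler was the plate control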
#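 Decision-based qHTS: stable cells, 24 h exposure to five compound concentrations, CCCP as control. Fixed cells stained for PINK1 plus nuclear, mitochondrial and cell markers, cytometer read.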
# D2 ag – activates the human D2 dopamine receptor; P14416; DiscoveRx PathHunter D2 beta-arrestin, luminescence, 90 min; 100% = 57 uM dopamine signal; activation, % (no concentration beside the values); hit rate 0.084% among 360,000; in the data active = activation above about 40%; inconclusive = about 15% to 40%; inactive = below about 15%; further: compound concentration not given in the record; the text of the record calls up to 30% inactive
#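 Agonist mode: compounds alone added to overnight-plated D2 PathHunter cells for 90 min at 37 C, with 57 uM final dopamine (EC100) defining full response. Beta-arrestin recruitment detected by chemiluminescent reagent, read after 1 h at ambient temperature.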
# CtBP-E1A inh – inhibitors of CtBP/E1A interaction; AlphaScreen GST-E1A/His-CtBP binding, 1536-well; stronger effect = lower value; control for the full effect not named in the record; activity change, % (concentration not given with the values); hit rate 0.49% among 340,000; in the data active means activity change below about -65%; inconclusive means about -30% to -65%; inactive means above about -30%; further: on the % scale 0 is the no-effect control and ±100 the full control effect
#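 Steps: dispense buffer (Tris pH 8.0, NaCl 300 mM, TCEP 1 mM, BSA, Tween 20); add 5X protein mix (GST-E1A, His-CtBP, 125 nM each); pin 23 nL compound; 2 h at 37 °C, dark; add 5X beads (50 ug/mL); 1 h; read.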
# Sfp PPTase inh – Sfp phosphopantetheinyl transferase inhibition | Q9F4F7 | Potency, µM, for inactives: max response, negative = inhibition, hits mostly inhibitors | hit rate 3.5% among 310,000 | Biochemical Sfp PPTase activity, qHTS; active means well fitted inhibition curve with a large enough effect; inconclusive means small, poorly fitted or top-dose-only effect, or another doubt; inactive means no such curve, though single readings can be large or run the other way;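 further: the enzyme is Sfp with the accession as filed and its product quenches rhodamine fluorescence; potency means the concentration at half of the fitted maximal effect; 0% = enzyme reaction without inhibitor and -100% = no enzyme wells; top concentration of the series not given in the record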
#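 Sfp 15 nM + cpd, 15 min RT; start w/ rhodamine-CoA 5 uM, BHQ-2-YbbR 12.5 uM (final); 50 mM Hepes pH 7.6, 10 mM MgCl2, 0.01% NP-40, 0.01% BSA; read 525/598 nm at 0 and 30 min.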
# TRPV1 potentiator – human TRPV1 potentiation; Q8NER1; TRPV1-expressing cells, Fluo-8 calcium influx, capsaicin EC20 potentiation; host cell line not named in the record; control for the full effect not named in the record; potentiation, % at 8.33 µM; hit rate 0.02% among 320,000; AID 540277; active means potentiation above 80%; inconclusive means 30% to 80%; inactive means below 30%; further: 0% is about no effect
#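 TRPV1-expressing cells were cultured overnight at 35.5C and loaded with Fluo-8 calcium dye for 40 to 90 min at room temperature. After a 10 s baseline, compound was added and calcium influx was read kinetically for 3 min (ex 480/em 520 nm).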
# * hit, by the source's call; ? = inconclusive; / = no result given; [ ] = another dose, or the depositor's remark.
SMILES,D2 PAM,Six1-Eya2 blk,PINK1 expr mod,D2 ag,CtBP-E1A inh,Sfp PPTase inh,TRPV1 potentiator
COCCN1CCC(CNCc2cn[nH]c2-c2ccc(C)c(C)c2)C1 (stereo not given),-13,3,-1.5%,-8.3,3,8%,2
COCCNC(=O)CC(NS(=O)(=O)c1ccc(NC(C)=O)cc1)C(C)C (stereo not given),1,-16,2.5%,-3.4,-4,11%,/
CN1OC[C@@H]2CN[C@H](c3ccc(-c4cc5ccccc5o4)cc3)C[C@@H]21,5,-4,8.5%,-7.4,5,/,/
Cc1ncc(CN2CCN(Cc3ccccc3)C(CCO)C2)s1 (stereo not given),-19,0,0.3%,-3.9,5,10%,2
CC(=O)c1cccc(OCC(=O)NC2CCCCCC2)c1,3,1,0.2%,1.5,4,/,-35
Cc1ccc(C)c(C(=O)NCc2ccncc2)c1,-4,0,-1.2%,-6.3,0,6%,-1
COCc1cc(C)n(CC(=O)Nc2ccc(N3CCOCC3)c(Cl)c2)c(=O)c1C#N,0,-3,-1.1%,-3.4,-4,12%,0
CC(=O)Nc1cccc(NC(=O)C(=O)NCC(c2ccco2)N2CCc3ccccc3C2)c1 (stereo not given),3,-11,0.4%,4.1,-7,/,1
COc1ccc(-c2nnc(SCC(=O)N3c4ccccc4Sc4ccccc43)o2)cc1,5,2,1.6%,-1.4,-3,16%,1
C=CCn1c(=O)c2ccccc2n2c(SCC(N)=O)nnc12,-4,-1,0.1%,1.3,-13,-4%,-15
O=C(NCCN1CCC(n2c(=O)[nH]c3ccccc32)CC1)c1ccc(Cl)cc1,/,1,1.2%,/,8,/,/
COc1ccc([N+](=O)[O-])cc1NC(=O)COC(=O)C1CC1,-7,18,0.5%,-5.4,5,19%,1
Cc1ccc(NC(=S)N(CCCN2CCOCC2)Cc2ccco2)cc1C,-13,-4,0.1%,-4.0,6,-8%,2
CCCC(=O)Nc1ccc(C(=O)NN=C(C2CC2)C2CC2)cc1,2,1,-1.1%,-1.3,1,6%,-13
COC(=O)c1ccc(CSc2nnnn2-c2ccc(C)cc2C)o1,-3,-4,/,-0.4,-4,-21%,-5
Cc1cccc(NC(=O)Nc2nnc([C@@H]3C[C@H](O)[C@@H](CO)O3)s2)c1,-6,4,1.5%,5.2,3,/,/
CNS(=O)(=O)c1cnccc1N1CCN(C)CC1,-28,8,0.1%,-1.0,0,19%,-3
Cc1ccc(OCCC(=O)Nc2ccc3c(c2)OCO3)cc1,-1,-1,2.5%,-5.4,-12,/,-18
COc1ccc(NS(=O)(=O)c2cccc(C(=O)N/N=C/c3ccc(O)cc3)c2)cc1,-3,-12,3.7%,-2.4,1,1%,11
Cc1cccn2c(=O)c(/C=C(\C#N)C(=O)NC3CCS(=O)(=O)C3)c(N3CCC(C(N)=O)CC3)nc12 (stereo not given),-13,2,0.6%,0.2,-5,-20%,-20
COc1ccc(/C=N/NC(=O)C(=O)NCc2cccnc2)cc1OC,5,10,1.1%,-1.2,-2,10%,6
O=C(NCCn1cc(SCc2ccccc2F)c2ccccc21)c1c(F)cccc1F,2,-5,2.7%,4.2,2,-4%,13
COc1ccc(OC)c(C(c2nnnn2C2CCCC2)N2CCc3ccccc3C2)c1 (stereo not given),-9,-20,-4.9%,-2.1,-16,-4%,-1
COc1ccc(NC(=O)c2cccc(S(=O)(=O)N3CCCCCC3)c2)cc1,-7,-18,3.0%,2.9,-6,12%,6
COc1ccc(C2CC(c3ccncc3)=NN2c2ccc(S(N)(=O)=O)cc2)cc1 (stereo not given),-1,26,1.1%,1.2,30,/,/

# Full records from above. Values in the order: D2 PAM	Six1-Eya2 blk	PINK1 expr mod	D2 ag	CtBP-E1A inh	Sfp PPTase inh	TRPV1 potentiator
# Results for O=C(NCCn1cc(SCc2ccccc2F)c2ccccc21)c1c(F)cccc1F → 2	-5	2.7%	4.2	2	-4%	13
# Results for COc1ccc(-c2nnc(SCC(=O)N3c4ccccc4Sc4ccccc43)o2)cc1 → 5	2	1.6%	-1.4	-3	16%	1
# Results for CNS(=O)(=O)c1cnccc1N1CCN(C)CC1 → -28	8	0.1%	-1.0	0	19%	-3

# The list goes on.
SMILES,D2 PAM,Six1-Eya2 blk,PINK1 expr mod,D2 ag,CtBP-E1A inh,Sfp PPTase inh,TRPV1 potentiator
COc1cc(NC(=O)c2ccccc2Cl)ccc1NC(=O)c1cccs1,-2,?,2.4%,-4.7,-8,7%,-5
Cn1c(N)c(C(=O)c2ccc(Oc3ccccc3)cc2)c(=O)n(C)c1=O,-1,-14,4.5%,-1.6,-1,6%,1
CCCn1c(SCC(=O)N2c3ccccc3Sc3ccccc32)nc2c1c(=O)n(C)c(=O)n2C,-8,-9,-2.0%,-2.3,-17,6%,3
CCN(CC)C(=O)c1scc2c1OCCO2,1,-9,-1.2%,-2.2,-11,14%,3
CCn1cc(C2=NOC(C(=O)Nc3cc(OC)c(Cl)cc3OC)C2)c(C)n1 (stereo not given),4,-2,0.6%[38.3 µM],1.8,-1,12%,-5
Cc1nc(NC(=O)C2CC2)sc1C(=O)N1CCCCC1,-18,5,-2.6%[38.3 µM],-1.9,7,2%,-8
Cc1oncc1C(=S)Nc1ccccc1,2,1,?,0.5,11,-25%,10
Cc1ccc(S(=O)(=O)N2[C@@H](c3ccc(Cl)cc3)C(C(=O)O)=CC[C@H]2c2ccc3c(c2)OCO3)cc1,-11,2,1.6%,-1.6,6,/,26
Cc1ccccc1NC(=O)c1ccc2c(c1)N(C)CCS2,-6,-6,-0.8%,-4.2,-1,6%,-17
CC1=NN(c2ccc(C)cc2C)C(=O)C1C(c1cccc(O)c1)C1C(=O)N(c2ccc(C)cc2C)N=C1C (stereo not given),1,-12,3.0%,-2.6,0,-4%,2
C[C@]12c3[nH]c4ccccc4c3CCN1C(=O)C(CC(=O)NCCC1=CCCCC1)C[C@@H]2C(=O)N1CCCCC1 (stereo not given in full),-6,-3,-0.2%,-3.6,6,/,/
COC(=O)C1=C(C)N(c2ccc(F)c(Cl)c2)C(=O)C1,14,1,0.0%,-2.4,-1,?,-11
CCOC(=O)N1CCN(C(=O)c2ccc(OC(C)=O)cc2)CC1,-13,5,0.2%,-1.5,30,-6%,-8
COc1ccc(C(=O)CC(CC(=O)c2ccc(OC)cc2)C(=O)O)cc1,-7,13,0.7%,-0.5,8,/,-8
CCN1C(=O)[C@H]2[C@@H](c3ccc(C(F)(F)F)cc3)N[C@]3(CCCN(Cc4ccc(C(F)(F)F)cc4)C3=O)[C@H]2C1=O,-13,7,4.0%,-7.9,5,/,/
Cc1ccc(-c2noc(C3CCCN(C(=O)C4CCCCC4)C3)n2)o1 (stereo not given),-5,-2,3.1%[38.3 µM],3.4,-7,?,-9
Cc1ccc(S(=O)(=O)/N=C2/NC(=O)/C(=C\c3ccccc3)S2)cc1,7,-7,?,-2.3,-2,/,/
N#CCCn1nc(-c2ccccc2)cc1Nc1ccccc1NC(=O)c1cccs1,-9,-9,1.3%,-3.1,-2,6%,-10
CC(C)c1ccc(N=Cc2c(O)c3ccccc3oc2=O)cc1,?,4,0.8%,4.7,/,45µM*,-7
CCN(CC)CCN=CC1=C(O)CNC1=O,-13,7,0.4%,-0.8,3,-3%,?
CC1(C)CC(=O)/C(=C(\O)CCCN2C(=O)c3ccccc3C2=O)C(=NCC(=O)O)C1,-3,12,0.9%,1.5,1,15%,15
COC(=O)CN(c1ccc(F)cc1)S(=O)(=O)c1ccccc1,-4,10,-0.3%,-1.4,5,10%,-64
CC1=Nc2ccc(C)cc2N(Cc2ccccc2)C(=O)C1,-6,-4,-0.6%,-13,0,-8%,12
CN(C)CCN(Cc1ccco1)c1ccccn1,-16,-5,2.5%,-1.6,6,/,/
CNC(=O)COC(=O)c1cc2c(s1)CCCC2,-5,5,-1.2%,-5.3,8,22%,-18

# Next part, starting with the last 5 of the part before.
SMILES,D2 PAM,Six1-Eya2 blk,PINK1 expr mod,D2 ag,CtBP-E1A inh,Sfp PPTase inh,TRPV1 potentiator
CC1(C)CC(=O)/C(=C(\O)CCCN2C(=O)c3ccccc3C2=O)C(=NCC(=O)O)C1,-3,12,0.9%,1.5,1,15%,15
COC(=O)CN(c1ccc(F)cc1)S(=O)(=O)c1ccccc1,-4,10,-0.3%,-1.4,5,10%,-64
CC1=Nc2ccc(C)cc2N(Cc2ccccc2)C(=O)C1,-6,-4,-0.6%,-13,0,-8%,12
CN(C)CCN(Cc1ccco1)c1ccccn1,-16,-5,2.5%,-1.6,6,/,/
CNC(=O)COC(=O)c1cc2c(s1)CCCC2,-5,5,-1.2%,-5.3,8,22%,-18
CCOc1ccc(NC(=O)CN(C)C(=O)c2ccc(-c3ccc(C(C)=O)cc3)o2)cc1OCC,-1,-8,5.5%,-1.4,-3,/,3
COc1ccc(NC(=O)C2CCCN2S(=O)(=O)c2cccc3cccnc23)c(OC)c1 (stereo not given),-4,2,0.3%,-0.2,-1,-7%,-3
Cn1c(CC(=O)NNC(=O)c2ccc(F)cc2Cl)nc2ccccc21,-2,-16,-1.1%,-2.1,/,/,13
CCOC(=O)C1Cc2ccccc2C(=O)O1 (stereo not given),-1,-1,-0.3%[38.3 µM],0.7,11,2%,1
Cc1cccc(C)c1-n1c(C)cc(/C=N/NC(=O)CSc2ncccn2)c1C,-8,-22,25%,-3.1,0,?,17
Cc1ccc(OCCC(=O)OCC(=O)NC(=O)NC2CCCC2)cc1,23,-2,7.0%,3.9,1,/,-8
CCCCCCCC1(C)NC(=O)NC1=O (stereo not given),-2,1,1.4%,-2.4,0,8%,-5
O=C(c1cccnc1Nc1ccccc1F)N1CCOCC1,4,13,-2.3%,-0.2,0,18%,-4
COc1ccccc1CNC(=O)c1cc(-c2cccnc2)nc2ccccc12,4,1,0.6%,2.7,-3,11%,7
CCCOC(=O)c1ccc(NC(=O)COC(=O)C2CCN(c3ccc(C(F)(F)F)cn3)CC2)cc1,0,2,2.1%,1.1,10,/,/
OCC1(Cc2ccccc2)CCCN(Cc2ccn[nH]2)C1 (stereo not given),-11,0,-0.5%,-0.6,/,12%,8
